Assay outcomes deposited in PubChem by Broad Institute.
MLL AF4-AF9 inh: inhibitors of human MLL-AF4/AF9 interaction; AID 651704; inhibition, % at 10 µM; 0.47% of 350,000 active; AlphaScreen, biotin-AF4 peptide binding to FLAG-AF9;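 active = every replicate reaching a set inhibition limit, whatever the replicate mean, cut at about 25% in these data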;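 note: 0% = plate neutral control median and 100% = total signal loss; the record names both 10 and 1 µM as test concentration; the first replicate is given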
Target sequence (P42568 whole entry, looked up): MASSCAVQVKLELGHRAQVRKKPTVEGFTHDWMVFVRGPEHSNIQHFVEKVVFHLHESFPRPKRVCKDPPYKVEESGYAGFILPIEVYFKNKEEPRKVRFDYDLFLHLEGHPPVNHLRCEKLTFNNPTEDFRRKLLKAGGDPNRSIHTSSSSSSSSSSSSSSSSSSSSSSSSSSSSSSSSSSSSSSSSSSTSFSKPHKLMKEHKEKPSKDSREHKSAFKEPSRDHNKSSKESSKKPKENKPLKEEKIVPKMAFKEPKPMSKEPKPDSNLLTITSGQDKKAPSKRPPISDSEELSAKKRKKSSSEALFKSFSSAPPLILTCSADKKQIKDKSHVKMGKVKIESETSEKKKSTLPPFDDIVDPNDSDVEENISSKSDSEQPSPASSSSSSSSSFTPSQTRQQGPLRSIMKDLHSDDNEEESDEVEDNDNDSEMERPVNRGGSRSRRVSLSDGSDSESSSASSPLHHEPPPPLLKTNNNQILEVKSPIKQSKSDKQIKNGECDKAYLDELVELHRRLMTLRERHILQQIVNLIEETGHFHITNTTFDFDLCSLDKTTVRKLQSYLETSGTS
* hit, by the source's call; & = joins results of further samples.

item	molecule	MLL AF4-AF9 inh
1	Cc1noc(C)c1S(=O)(=O)Nc1ccc2c(c1)C(=O)N([C@H](C)CO)C[C@@H](C)[C@H](CN(C)Cc1ccncc1)O2	-3.7
2	C[C@@H]1CN([C@@H](C)CO)C(=O)c2cc(NC(=O)c3ccncc3)ccc2O[C@H]1CN(C)C(=O)Nc1ccc(F)cc1	-0.9
3	CN1C(=O)c2cc(NC(=O)c3ccc(C(F)(F)F)cc3)ccc2OC[C@H]2O[C@H](CC(=O)NCc3ccc4c(c3)OCO4)CC[C@H]21	0.3
4	C[C@@H]1CN([C@H](C)CO)C(=O)c2cc(NC(=O)Nc3ccc4c(c3)OCO4)ccc2O[C@H]1CN(C)S(=O)(=O)c1cccs1	2.6
5	CCc1ccccc1OCC(=O)Nc1cccc(S(=O)(=O)NC2=NCCC2)c1	1.4
6	CN1OC[C@@H]2CN(C(=O)CCc3ccccc3)[C@H](c3cccc(Oc4ccccc4)c3)C[C@@H]21	1.3
7	C[C@H]1CN([C@@H](C)CO)C(=O)c2cc(C3=CCCC3)cnc2O[C@@H]1CN(C)C(=O)Cc1ccncc1	0.3
8	COc1cccc(NC(=O)Nc2ccc3c(c2)C(=O)N(C)[C@H]2CC[C@H](CC(=O)NCCc4ccccc4)O[C@H]2CO3)c1	4.8
9	COc1ccccc1C#Cc1cnc2c(c1)C(=O)N([C@@H](C)CO)C[C@H](C)[C@@H](CN(C)C(=O)CC1CC1)O2	-0.7
10	O=C(Nc1cccc(C(F)(F)F)c1)Nc1ccc2nc([C@@H]3O[C@H](CO)[C@@H](O)[C@H](O)[C@H]3O)[nH]c2c1	-7.1
11	CCCC#Cc1cnc2c(c1)C(=O)N([C@@H](C)CO)C[C@H](C)[C@H](CN(C)S(C)(=O)=O)O2	-7.5
12	C[C@@H]1CN([C@@H](C)CO)C(=O)c2cccc(NC(=O)Nc3ccc(F)cc3)c2O[C@@H]1CN(C)Cc1ccccc1	-3.3
13	COc1cccc(-c2cnc3c(NC=O)cc(-c4ccc(S(C)(=O)=O)cc4)cn23)c1	-1.5
14	O=C(N[C@@H]1CC[C@@H](CCn2cc(Cc3ccccc3)nn2)O[C@H]1CO)c1ccccn1	-3.1
15	COc1cccc(S(=O)(=O)Nc2ccc3c(c2)[C@H]2C[C@@H](CC(=O)N(C)C)O[C@H](CO)[C@H]2O3)c1	1.4
16	C[C@@H]1CN([C@H](C)CO)S(=O)(=O)c2ccc(C#CC(C)(C)O)cc2O[C@@H]1CN(C)C(=O)CC1CC1	-2.4
17	COc1cccc(-c2ccc([C@@H]3[C@H]4CN(C(=O)C5CCCCC5)CC(=O)N4[C@H]3CO)cc2)c1	1.6
18	CCCNC(=O)C[C@@H]1CC[C@H]2[C@@H](COc3ccc(NC(=O)c4cc(C)on4)cc3C(=O)N2C)O1	-18
19	Cc1noc(C)c1NC(=O)N(C)C[C@@H]1Oc2ccc(NC(=O)Cc3cn(C)c4ccccc34)cc2C(=O)N([C@@H](C)CO)C[C@@H]1C	-12
20	CC(C)NC(=O)N(C)C[C@@H]1Oc2ccc(NS(=O)(=O)c3cn(C)cn3)cc2CC(=O)N([C@@H](C)CO)C[C@H]1C	-3.6
21	O=C(NC1CC1)c1cccc(NC(=O)C2CCCCC2)c1	-0.4
22	COc1ccc(C#Cc2cnc3c(c2)C(=O)N([C@@H](C)CO)C[C@@H](C)[C@H](CN(C)CC2CCOCC2)O3)cc1	4.4
23	COc1ccc(-c2cnc3c(c2)C(=O)N([C@H](C)CO)C[C@H](C)[C@H](CN(C)Cc2cccnc2)O3)cc1	-3.0
24	C/C=C/c1ccc2c(c1)O[C@@H](CN(C)S(C)(=O)=O)[C@H](C)CN([C@@H](C)CO)S2(=O)=O	0.9
25	CC(C)(C)n1nnnc1C(c1ccccc1)N1CCN(c2ccccc2)CC1 (stereo not given)	3.4
26	COc1ccc(-n2ncc(C(C)NS(=O)(=O)c3cc(C)sc3C)c2C)cc1 (stereo not given)	2.8
27	COc1cc(NC(=O)[C@H]2O[C@@H](n3ccc(N)nc3=O)[C@H](O)[C@@H]2O)cc(OC)c1OC	-0.6
28	COc1ccc([Si](C)(C)[C@@H]2[C@@H](CCO)O[C@]3(C(=O)N(c4ccccc4)c4ccccc43)[C@H]2C)cc1	0.4
29	C[C@H]1CN([C@@H](C)CO)S(=O)(=O)c2ccc(/C=C/c3ccccc3)cc2O[C@H]1CN(C)C(=O)Nc1ccc(F)cc1	1.0
30	CCCN(CCC)Cc1cc(=O)oc2cc(C)c(Cl)cc12	-0.4
31	CCCN1[C@@H]2c3ccc(C4=CCCC4)c(=O)n3C[C@H]1[C@H](CO)[C@H]2C(=O)N(C)C	-1.7
32	COc1ccc(S(=O)(=O)N(C)C[C@H]2OCCCC[C@@H](C)Oc3ccc(NS(=O)(=O)c4ccc(F)cc4)cc3C(=O)N([C@H](C)CO)C[C@H]2C)cc1	2.1
33	CCCN1C[C@@H](C)[C@@H](OC)CN(C)C(=O)c2cc(NC(=O)c3ccccc3F)ccc2OC[C@H]1C	-2.5
34	CCC(=O)N1Cc2cc(C(=O)NCCOC)nc(-c3cccc(-c4ccc(C#N)cc4)c3)c2[C@H]1CCO	1.6&-1.7
35	C[C@@H]1CCCCO[C@H](CN(C)S(=O)(=O)c2cccs2)[C@H](C)CN([C@@H](C)CO)C(=O)c2cc(NC(=O)CCC(F)(F)F)ccc2O1	0.6
36	COC(=O)C[C@H]1CC[C@@H]2[C@H](COc3ccc(NC(=O)C4CC4)cc3C(=O)N2C)O1	-0.3
37	O=C(Nc1ccc(F)cc1)C(c1ccccc1)N1CCN(c2cccc(C(F)(F)F)n2)CC1 (stereo not given)	0.8
38	COc1ccc(S(=O)(=O)N(C)C[C@H]2Oc3ccc(NC(=O)CCN4CCOCC4)cc3CC(=O)N([C@@H](C)CO)C[C@H]2C)cc1	-2.1
39	CO[C@@H]1CN(C)C(=O)c2ccc(NC(=O)c3ccc(F)cc3)cc2OC[C@@H](C)N(C(=O)CC2CC2)C[C@H]1C	1.1
40	Cc1noc(C)c1S(=O)(=O)Nc1ccc2c(c1)CC(=O)N([C@@H](C)CO)C[C@H](C)[C@@H](CN(C)Cc1ccccc1)O2	1.2
41	O=C(C[C@@H]1CC[C@H]2[C@@H](COC[C@@H](O)CN2Cc2ccc(Oc3ccccc3)cc2)O1)Nc1nccs1	4.8
42	COc1ccc2c3c([nH]c2c1)[C@H](CO)N(C(=O)Nc1ccc(F)cc1)CC31CN(C(=O)c2ccccc2F)C1	2.0
43	C[C@@H]1CN([C@H](C)CO)C(=O)c2cccc(NS(=O)(=O)c3cccs3)c2O[C@H]1CN(C)C(=O)Nc1cccc2ccccc12	2.1
44	C[C@H](CO)N1C[C@H](C)[C@H](CN(C)C)Oc2ccc(NC(=O)Cc3cn(C)c4ccccc34)cc2C1=O	-8.6
45	CCOc1ccc(/C=N/Nc2cc(N3CCOCC3)ncn2)c(O)c1	32*
46	O=C(Nc1ccc(Cl)cc1)N[C@@H]1CC[C@@H](CCn2cc(Cc3ccccc3)nn2)O[C@H]1CO	3.4
47	C[C@@H]1CCCCO[C@H](CN(C)Cc2ccc(C(F)(F)F)cc2)[C@H](C)CN([C@@H](C)CO)C(=O)c2cc(NC(=O)c3ccccc3)ccc2O1	0.8
48	CO[C@@H]1CN(C)C(=O)c2ccc(NC(C)=O)cc2OC[C@@H](C)N(C(=O)Cc2ccccn2)C[C@H]1C	-1.6
49	C=CC[C@]12C[C@@]3(O[C@H](c4ccc(C(F)(F)F)cc4)N=C3C[C@H](c3ccc(OC)cc3)[C@H]1C)N(Cc1ccncc1)C2=O	1.6
50	CNc1cnc(-c2cc(OC)c(OC)c(OC)c2)cn1	0.7
51	CCc1nc2ccc(C(=O)NCCNC(C)=O)cn2c1N(C)CCCc1ccccc1	-0.5
52	C[C@H]1CN([C@@H](C)CO)C(=O)CCCn2nncc2CO[C@H]1CN(C)Cc1ccc(O)cc1	-2.4
53	CN(C)CC#Cc1ccc([C@@H]2[C@H](CO)N3CCCCN(C(=O)C4CCCC4)C[C@@H]23)cc1	2.8
54	O=C(O)C[C@@H]1C=C[C@H](NC(=O)Nc2cc(F)ccc2F)[C@H](CO)O1	-0.1
55	COCC(=O)Nc1ccc2c(c1)[C@H]1C[C@@H](CC(=O)NCc3cccnc3)O[C@@H](CO)[C@H]1O2	-2.0
56	CCOC(=O)C1C2C=CC3(O2)C1C(=O)N(Cc1ccccc1)C3C(=O)NCc1ccccc1 (stereo not given)	-0.4
57	COc1ccccc1NC(=O)N1CCCCN2[C@@H](CO)[C@@H](c3ccc(-c4ccc(C)cc4)cc3)[C@@H]2C1	3.0
58	COc1ccc2nc3n(c(=O)c2c1)-c1ccc(Cl)cc1C(=O)NC3Cc1ccc(O)cc1 (stereo not given)	-2.7
59	COc1cccc(C(=O)Nc2ccc3c(c2)OC[C@@H](C)N(C)C[C@H](C)[C@H](OC)CN(C)C3=O)c1	0.9
60	C[C@H](CO)N1C[C@H](C)[C@@H](CN(C)C(=O)Nc2cccc3ccccc23)Oc2ccc(NC(=O)Cc3cn(C)c4ccccc34)cc2C1=O	0.0

Down the list, quoted from above.
Entries 30 to 34 in MLL AF4-AF9 inh, in turn: -0.4, -1.7, 2.1, -2.5, 1.6&-1.7

(continued)
item	molecule	MLL AF4-AF9 inh
61	COc1ccc(C#Cc2ccc3c(c2)O[C@@H](CN(C)C(=O)CN2CCOCC2)[C@@H](C)CN([C@H](C)CO)S3(=O)=O)cc1	6.4
62	CN1C(=O)c2cc(NC(=O)c3cnccn3)ccc2OC[C@@H]2O[C@@H](CC(=O)N[C@@H]3CCN(Cc4ccccc4)C3)CC[C@H]21	6.8
63	CNC[C@H]1Oc2cc(-c3ccc(OC)cc3)ccc2S(=O)(=O)N([C@H](C)CO)C[C@@H]1C	-0.7
64	C[C@H](CO)N1C[C@H](C)[C@@H](CN(C)Cc2cccnc2)Oc2cc(Br)ccc2S1(=O)=O	0.7&-1.6
65	COCC(=O)N1[C@@H](CO)[C@@H](c2ccccc2)C12CN(C(=O)c1ccc(F)cc1)C2	-4.3
66	O=C(OCC(=O)c1c[nH]c2ccccc12)c1ccc(F)c(S(=O)(=O)N2CCOCC2)c1	-0.1
67	Cc1ccc(S(=O)(=O)N(C)C[C@@H]2OCCCC[C@H](C)Oc3ccc(NC(=O)NC(C)C)cc3C(=O)N([C@@H](C)CO)C[C@@H]2C)cc1	5.7
68	COCCNC(=O)C[C@H]1C[C@@H]2c3cc(NC(=O)C4CCOCC4)ccc3O[C@@H]2[C@@H](CO)O1	1.9
69	C[C@@H]1CN([C@@H](C)CO)S(=O)(=O)c2ccc(C#Cc3cccnc3)cc2O[C@H]1CN(C)CC1CCOCC1	2.3
70	Cc1ccc(C(=O)N2CCCC2(C)C(=O)NCC(C)C)cc1F (stereo not given)	-0.7
71	C[C@H](NC(=O)[C@H]1[C@H](CO)[C@H]2Cn3c(cccc3=O)[C@H]2N1Cc1cccnc1)c1ccccc1	-0.3
72	COc1ccc(-c2cnc3c(c2)C(=O)N([C@@H](C)CO)C[C@@H](C)[C@H](CN(C)S(C)(=O)=O)O3)cc1	-2.9
73	C[C@H](CO)N1C[C@H](C)[C@H](CN(C)Cc2ccc3c(c2)OCO3)Oc2ccc(NC(=O)CCCCCC(=O)Nc3ccccc3N)cc2CC1=O	-2.4
74	CNC[C@@H]1Oc2cc(C#Cc3ccccc3)ccc2S(=O)(=O)N([C@@H](C)CO)C[C@H]1C	12
75	C[C@@H]1CN([C@H](C)CO)C(=O)c2cc(NC(=O)Nc3ccc(F)cc3)ccc2O[C@@H](C)CCCCO[C@@H]1CN(C)S(=O)(=O)c1cccs1	-5.1
76	C[C@H](CO)N1C[C@H](C)[C@@H](CN(C)Cc2ccccn2)Oc2ncc(-c3ccc(C#N)cc3)cc2C1=O	-9.6
77	O=C(C1CCOCC1)N1CC(=O)N2[C@H](CO)[C@@H](c3ccc(/C=C/c4ccccc4)cc3)[C@@H]2C1	3.2
78	C[C@@H]1CN([C@H](C)CO)S(=O)(=O)c2ccc(C#CC3(O)CCCC3)cc2O[C@@H]1CN(C)C(=O)Nc1ccc(F)cc1	-1.2
79	CCS(=O)(=O)Nc1ccc2c(c1)C(=O)N(C)[C@H]1CC[C@H](CC(=O)NC)O[C@@H]1CO2	-2.0
80	Cn1nc(C(C)(C)C)cc1C(=O)N1CCCC(c2cc(C(=O)Nc3ccccc3Cl)no2)C1 (stereo not given)	0.5

Ordered by value in MLL AF4-AF9 inh (ascending): some entries from above
item	molecule	MLL AF4-AF9 inh
76	C[C@H](CO)N1C[C@H](C)[C@@H](CN(C)Cc2ccccn2)Oc2ncc(-c3ccc(C#N)cc3)cc2C1=O	-9.6
72	COc1ccc(-c2cnc3c(c2)C(=O)N([C@@H](C)CO)C[C@@H](C)[C@H](CN(C)S(C)(=O)=O)O3)cc1	-2.9
79	CCS(=O)(=O)Nc1ccc2c(c1)C(=O)N(C)[C@H]1CC[C@H](CC(=O)NC)O[C@@H]1CO2	-2.0
66	O=C(OCC(=O)c1c[nH]c2ccccc12)c1ccc(F)c(S(=O)(=O)N2CCOCC2)c1	-0.1

The listing picks up, repeating the 4 entries before the break.
item	molecule	MLL AF4-AF9 inh
77	O=C(C1CCOCC1)N1CC(=O)N2[C@H](CO)[C@@H](c3ccc(/C=C/c4ccccc4)cc3)[C@@H]2C1	3.2
78	C[C@@H]1CN([C@H](C)CO)S(=O)(=O)c2ccc(C#CC3(O)CCCC3)cc2O[C@@H]1CN(C)C(=O)Nc1ccc(F)cc1	-1.2
79	CCS(=O)(=O)Nc1ccc2c(c1)C(=O)N(C)[C@H]1CC[C@H](CC(=O)NC)O[C@@H]1CO2	-2.0
80	Cn1nc(C(C)(C)C)cc1C(=O)N1CCCC(c2cc(C(=O)Nc3ccccc3Cl)no2)C1 (stereo not given)	0.5
81	COc1ccc(CN(C)C[C@@H]2Oc3c(NC(=O)Nc4ccc(F)cc4)cccc3C(=O)N([C@H](C)CO)C[C@@H]2C)cc1	1.3
82	CCNC[C@@H]1[C@H](c2ccc(-c3ccc(F)cc3)cc2)[C@H](CO)N1S(C)(=O)=O	2.0
83	CCOC(=O)N1C(=O)NC(=O)C1c1ccc(Cl)cc1 (stereo not given)	-0.4
84	CCNC(=O)C[C@H]1CC[C@H]2[C@H](COc3ccc(NC(=O)Nc4cccc(F)c4)cc3C(=O)N2C)O1	2.4

Some of the compounds tested. The share of hits here may be higher or lower than overall.
